High-throughput results (PubChem)
VACV mCherry inh: vaccinia inhibition (mCherry reporter). Vaccinia virus mCherry reporter infection, fluorescence; about a quarter of the inactives have no number. hit rate 0.63% among 310,000. Potency, µM (titrated, usually from 36.5 µM), inactives show at the top dose activity change, negative = inhibition, actives largely listed as inhibitors; active = well fitted inhibition curve with a large enough effect; inconclusive = small, poorly fitted or top-dose-only effect; inactive = no such curve, though single readings can be large or run the other way; tested in A549 cells; further: nearly all actives have a fitted effect of over 35% in size; inactives centre near -10
VACV Venus inh: vaccinia inhibition (Venus reporter); Vaccinia virus Venus reporter expression, fluorescence; AID 720580; hit rate 0.46% among 330,000; Potency, µM (highest dose often 36.5 µM), for inactives: at the top dose activity change, negative = inhibition, most hits filed as inhibitors; active means well fitted inhibition curve with a large enough effect; inconclusive means small, poorly fitted or top-dose-only effect; inactive means no such curve, though single readings can be large or run the other way; tested in A549 cells; further: nearly all actives have a fitted effect of over 30% in size; inactives centre near -10
An asterisk follows results filed as active; i = inactive; u = inconclusive; x = no result given; & = joins results of further samples. On the % scale 0 is the no-effect control and ±100 the full control effect; potency means the concentration at half of the fitted maximal effect.

The line under a structure holds: VACV mCherry inh | VACV Venus inh
[1] C/C(NC(=O)c1cccc(F)c1)=C1/C(=O)C[C@@H]2[C@H]1C2(C)C
    29% | -20%
[2] CC(=O)NC(c1ccc([N+](=O)[O-])cc1)c1c(O)ccc2ccccc12 (stereo not given)
    -16% | -18%
[3] C=C/C(C)=C/CC1C(=C)CCC2C(C)(C(=O)O)CCCC12C (stereo not given)
    i | -1%
[4] CC1Cc2ccccc2N1C(=O)CO/N=C/c1ccccc1OC(F)F (stereo not given)
    i | 7%
[5] CCOC(=O)c1c(N)sc(C(=O)Nc2ccc3c(c2)OCO3)c1C
    -10% | -11%
[6] Cc1nn(CC(=O)NCCCN2CC(C)CC(C)C2)c(=O)c2cccn12 (stereo not given)
    -14% | -11%
[7] O=S1(=O)CCOC(CO)CN1Cc1ccc(Cl)c(Cl)c1 (stereo not given)
    i | -12%
[8] COc1ccc(CCNCc2ccncc2)cc1
    x | -15%
[9] COCCN(CC(=O)Nc1cccc(C)c1C)C(=O)C1CCN(S(=O)(=O)c2ccccc2)CC1
    -6% | -14%
[10] CSc1ncc(C(=O)Nc2cccc(S(N)(=O)=O)c2)n1-c1ccccc1
    i | -7%
[11] O=S(=O)(NN=C1CCCCCC1)c1ccccc1
    -13% | -2%
[12] Cc1cccc(-c2nc(CS(=O)CC(=O)N3CCc4ccccc4C3)c(C)o2)c1 (stereo not given)
    -4% | -7%
[13] CC(C)Sc1nnc(CNC(=O)C23CC4CC(CC(C4)C2)C3)n1Cc1ccccc1
    i | -16%
[14] COc1ccc(N2C(=O)c3ccc(C(=O)OC(C)C)cc3C2=O)cc1
    i | -15%
[15] COc1ccccc1CNC1CCCc2ccccc21 (stereo not given)
    -10% | -1%
[16] C#CCOCCOCCOCCNc1nc(N2CCN(C(=O)[C@H](CCCN=C(N)N)n3cc(C(N)[C@@H](C)CC)nn3)CC2)nc(N2CCN(C(=O)[C@H](CCCCN)n3cc([C@@H](N)CC(N)=O)nn3)CC2)n1 (stereo not given in full)
    -21% | 5%
[17] CN(C)C(=O)c1cc(Cl)ccc1Sc1cc(Cl)ccc1Cl
    x | 17%
[18] Clc1ccc(C[n+]2csc3ccccc32)cc1
    i | -11%
[19] CCOC(=O)C1(Cc2cccc(OC)c2)CCN(Cc2ccc(C)s2)CC1
    -18% | -29%
[20] O=C(CCCN1C(=O)c2ccccc2C1=O)Nc1ccc2c(c1)OCCO2
    -8% | -4%
[21] CC(=O)NCCNc1nc2cc(-c3cscc3C)sc2c(=O)n1C
    12% | -6%
[22] COc1ccc(C2=NS(=O)(=O)N(C)C(C(=O)Nc3ccc(C(C)=O)cc3)=C2)cc1OC
    -21% | -20%
[23] CC1(C)Cc2c(C#N)c(NCc3ccco3)nc(-c3ccco3)c2CO1
    x | -9%
[24] Cc1ccc(N(CCC#N)C(=O)COC(=O)C2CCN(S(=O)(=O)c3ccc4c(c3)OCCO4)CC2)cc1
    i | -5%
[25] O=C(NNS(=O)(=O)c1ccc2ccccc2c1)NC1CCCCC1
    -9% | -11%
[26] COc1ccc(N2CCN(C(c3ccc(C)cc3)c3nnnn3C(C)(C)C)CC2)cc1 (stereo not given)
    i | -10%
[27] CC(C)C[C@H]1CNC(=S)N1C[C@H]1CCCN1C[C@H](Cc1ccccc1)N1C[C@H](Cc2ccc(O)cc2)N(CC2CCCCCC2)C1=S
    -24% | u
[28] Cc1[nH]n(-c2cccc3ccccc23)c(=O)c1/C=N/NC(=O)c1cccc([N+](=O)[O-])c1
    i | -11%
[29] COc1cc(OC)cc(-c2nc(-c3ccc4c(c3)[nH]c(=O)n4C)no2)c1
    -1% | 3%
[30] O=C(Cn1ncc2ccccc21)N1CCC2(CC1)OCCO2
    -14% | -15%
[31] CC(=O)c1cccc(Nc2nc(-c3cccc(C)c3)nc3ccccc23)c1
    -3% | u
[32] COc1ccc(C(=O)NCC(=O)OCC(=O)c2cccc3ccccc23)cc1
    14% | -3%
[33] COc1cc(SC)ccc1C(=O)N1CCn2c3c(c4cc(C)ccc42)CCCC31 (stereo not given)
    -15% | 0%
[34] COc1ccc(S(=O)(=O)N2Cc3ccccc3CC2C(=O)O)cc1OC (stereo not given)
    4% | -6%
[35] CCn1c(NCc2ccccc2Cl)nc2ccccc21
    x | u
[36] C=CCC1NS(=O)(=O)OC(CCCC)C1O (stereo not given)
    i | -4%
[37] CCNC(=S)Nc1ccc(Cc2nc3ccccc3[nH]2)cc1
    -5% | -6%
[38] CCC(=O)Oc1ccc(/C(CC)=C(\CC)c2ccc(OC(=O)CC)cc2)cc1
    -21% | -19%
[39] O=C(c1ccc(Br)c(S(=O)(=O)N2CCCCC2)c1)N1CCCCC1
    i | -14%
[40] CN(Cc1nc2ccccc2c(=O)[nH]1)C(=O)c1cccc(S(=O)(=O)N2CCc3ccccc32)c1
    u | 8%
[41] C#CCNC(=O)C1=C[C@@H](c2ccc(C#C)cc2)[C@H](CCCO)[C@@H](OCC)O1
    -14% | -8%
[42] O=C1C=C(c2n[nH]nc2-c2ccccc2)C[C@@H](c2ccc(F)cc2)C1
    i | -21%
[43] Cc1ccccc1S(=O)(=O)Cc1ccc(C(=O)NCCN2CCCCC2C)o1 (stereo not given)
    x | -8%
[44] Cc1nn2c(-c3cccc(NC(=O)CSc4nc5ccccc5o4)c3)nnc2c2ccccc12
    -8% | u
[45] O=P1(O)Cc2ccccc2-c2ccccc21
    -7% | -3%
[46] O=C(CC1N=C2c3ccccc3N=C(SCc3ccc(Cl)cc3)N2C1=O)NCCc1ccccc1 (stereo not given)
    -29% | -28%
[47] CC1=Nc2ccccc2/C1=C/c1c(N)n2c(S(=O)(=O)C(C)C)nsc2nc1=O
    -4% | -5%
[48] Cc1ccc2c(CN3CCN(C(=O)c4ccco4)CC3)cc(=O)oc2c1C
    -3% | 5%
[49] O=[N+]([O-])c1ccc(O)c(Nc2ncnc3ccc(Br)cc23)c1
    i | -1%
[50] CCCCCc1ccc(-c2cn(Cc3cccc(OC)c3)nn2)cc1
    -20% | -14%&-8%
[51] COc1ccc(OCCCN2CCc3ccccc3C2)cc1
    -18% | -10%
[52] O=C(c1cnn2c(C(F)(F)F)cc(-c3cccs3)nc12)N1CCN(C(c2ccccc2)c2ccccc2)CC1
    x | -8%
[53] Cc1sc(-c2cccnc2)nc1OC(=O)C1CC1
    -25% | -12%
[54] CCc1cc2ccc(C)cc2nc1SCC(=O)Nc1cc(C)on1
    -7% | -5%
[55] CCSc1nnc2c(n1)OC(C)(C)Nc1ccccc1-2
    u | -17%
[56] CC(=O)N(c1c(C)n(C)n(-c2ccccc2)c1=O)C1(C(=O)NC2CCCC2)CCCCC1
    -3% | 10%
[57] CN(C)/C=C1\N=C(c2ccccc2)OC1=O
    i | -15%
[58] CCOC(=O)[C@]12CCCC=C1N(Cc1ccccc1)C(=O)[C@H](CC(=O)NCc1cccc3ccccc13)C2
    u | u
[59] COc1ccc(-n2c(C)cc(/C=C/c3nc(O)c([N+](=O)[O-])c(=O)[nH]3)c2C)cc1
    11% | 2%
[60] COc1ccc2[nH]c(=O)c(CNc3ccccc3OC)cc2c1
    -15% | -6%

Entries of single compounds, looked up by structure.
CCSc1nnc2c(n1)OC(C)(C)Nc1ccccc1-2 is entered as VACV mCherry inh = u; VACV Venus inh = -17%
CC1(C)Cc2c(C#N)c(NCc3ccco3)nc(-c3ccco3)c2CO1 is entered as VACV mCherry inh = x; VACV Venus inh = -9%
CN(C)C(=O)c1cc(Cl)ccc1Sc1cc(Cl)ccc1Cl is entered as VACV mCherry inh = x; VACV Venus inh = 17%

Not a retest: three of the compounds above.
The line under a structure holds: VACV mCherry inh | VACV Venus inh
[58] CCOC(=O)[C@]12CCCC=C1N(Cc1ccccc1)C(=O)[C@H](CC(=O)NCc1cccc3ccccc13)C2
    u | u
[59] COc1ccc(-n2c(C)cc(/C=C/c3nc(O)c([N+](=O)[O-])c(=O)[nH]3)c2C)cc1
    11% | 2%
[60] COc1ccc2[nH]c(=O)c(CNc3ccccc3OC)cc2c1
    -15% | -6%

Other entries:
The line under a structure holds: VACV mCherry inh | VACV Venus inh
[61] NC(=O)c1nsc(C(=O)N(CC(=O)NC2CCCCC2)Cc2ccc(F)cc2)c1N
    -11% | 11%
[62] O=c1oc(-c2ccccc2F)nc2scc(-c3ccccc3)c12
    i | -1%
[63] C[C@@H]1CN([C@@H](C)CO)C(=O)CCCn2nncc2CO[C@H]1CN(C)C(=O)Nc1cccc2ccccc12
    -5% | -13%
[64] CCCCC1=CC2=C(c3ccco3)C(=O)C(C)(OC(=O)c3ccc(OC)cc3)C(=O)C2=CN1CCc1ccccn1 (stereo not given)
    -26% | -11%
[65] O=C(NCc1ccccc1Cl)C1CCN(S(=O)(=O)N2CCC3(CC2)OCCO3)CC1
    5% | 5%
[66] O=C(CCn1cnc2onc(-c3ccc(F)cc3)c2c1=O)N1CCN(c2ccc(F)cc2)CC1
    -3% | -16%
[67] CC(C)Nc1nc(Nc2ccc(F)cc2)c2sccc2n1
    u | u
[68] COCCn1c(N)c(Sc2ccc(Cl)cc2)c(=O)[nH]c1=O
    i | 0%
[69] O=C(Nc1cccc(C(F)(F)F)c1)c1csc(-c2ccncc2)n1
    i | -21%
[70] CC(C)(C)OC(=O)N1CCC(c2c(C(=O)NC3CCN(Cc4ccccc4)CC3)cnn2-c2cccc(F)c2)CC1
    -23% | -19%
[71] CCN(CC)c1nc(-c2ccc(C(=O)NN)cc2)nc(-c2ccc(C(=O)NN)cc2)n1
    i | -14%
[72] COc1ccc(NC(=O)CCNC(=O)c2ccco2)c(OC)c1
    -7% | -6%
[73] O=C1NC(=O)N2CCSC2(Cc2ccccc2)N1 (stereo not given)
    u | -11%
[74] COc1ccc(OC)c(N(CC(=O)Nc2ccccc2)S(C)(=O)=O)c1
    -10% | 2%
[75] Clc1cccc(C2=NC(c3cccs3)=Nc3ccc(Br)cc3N2)c1
    -13% | -21%
[76] CCC(=O)N1c2ccccc2CC1C(=O)NCCCN1CCN(c2cccc(Cl)c2)CC1 (stereo not given)
    -9% | -3%
[77] CC(=O)N(CCc1ccccc1C)Cc1cc2cc3c(cc2[nH]c1=O)OCO3
    x | -15%
[78] CC(Oc1ccc(Cl)cc1)/C(N)=N/O (stereo not given)
    -14% | -12%
[79] COc1ccc(CNc2nc3ccccc3n2Cc2ccc(Cl)cc2)cc1OC
    -28% | -23%
[80] CCOc1ccc(CNC(=O)C(=O)c2cn(CC(=O)N3CCOCC3)c3ccccc23)cc1OC
    -29% | -14%
[81] CCCCNc1nc2ccccc2nc1NS(=O)(=O)c1ccc(F)cc1
    -14% | -5%
[82] CCS(=O)(=O)n1nc(-c2ccco2)nc1N
    u | -21%
[83] Cc1ccc(Cc2c(-c3ccco3)nc3ccc(Br)cn23)cc1
    4% | -2%
[84] O=C(CO/N=C/c1cccc([N+](=O)[O-])c1)NC1CCCCCC1
    -23% | -14%
[85] COCCCN1C(=O)C(CC(=O)NCCCCc2ccccc2)CC(C(=O)N(C(C)C)C(C)C)=C1C (stereo not given)
    i | -6%
[86] Cc1cc(C)cc(OC(=O)c2cc(-c3ccc4c(c3)OCCO4)on2)c1
    -2% | 4%
[87] COc1ccc(CC(=O)NC(C)c2nnc(SCC(=O)Nc3ccccc3F)n2C)cc1 (stereo not given)
    -9% | 15%
[88] CC(=O)Nc1ccc(CNc2nc3cc(-c4ccccc4C)sc3c(=O)n2C)cc1
    -9% | -17%
[89] O=C(CCS(=O)(=O)c1ccccc1)N(Cc1cccnc1)c1nc2ccc(Cl)cc2s1
    -1% | -10%
[90] COc1ccc(Cl)cc1NC(=O)COC(=O)Cc1cc(OC)c(OC)c(OC)c1
    -5% | -5%
[91] Cc1ccc(CNC(=O)COCc2cc(-c3ccc4c(c3)OCO4)on2)cc1
    -10% | -10%
[92] CNC(=O)/C(C#N)=C/c1ccc(-c2nc3ccccc3s2)o1
    -1% | -2%
[93] CC1=C(C(=O)OCc2ccc(C)cc2)C(c2ccccc2C(F)(F)F)CC(=O)N1 (stereo not given)
    -17% | -16%
[94] CCN(CC)CCCNC(=O)c1nn(-c2ccc(OC)cc2)c(=O)c2c1c1ccccc1n2C
    3% | -15%
[95] CCOC(=O)C1(Cc2cccc(Cl)c2)CCCN(C(=O)c2ccc(COC)s2)C1 (stereo not given)
    i | -12%
[96] O=C(Nc1nnc(-c2cccs2)o1)c1cccc(Oc2ccccc2)c1
    u | -13%
[97] CCN1CCCC1CNC(=O)c1csc2c1CCCC2 (stereo not given)
    i | u
[98] O=C1NC(=O)C(=Cc2ccc(-c3ccc(F)cc3O)o2)C(=O)N1
    -20% | -23%
[99] CC(=O)N1CCOc2ccc(S(=O)(=O)N3CCC(C(=O)NCc4ccc(F)cc4)CC3)cc21
    -8% | -19%
[100] CCOc1ccccc1C1C(C(=O)Nc2ccccc2OC)=C(C)Nc2nnnn21 (stereo not given)
    x | 3%
[101] C=CCn1c(COc2ccc(Cl)cc2)nnc1SCC(=O)N/N=C/c1cccc(O)c1
    x | -29%
[102] CC(C)(C)c1ccc(-c2noc(CNC(=O)c3ccco3)n2)cc1
    -1% | -1%
[103] C=C(C)Cn1c2ccc(NC(=O)CCOCC)cc2c(=O)n1C
    i | -3%
[104] COC(=O)c1cc(C(=O)Nc2ccc(S(=O)(=O)NC(C)(C)C)cc2)cc([N+](=O)[O-])c1
    -16% | -8%
[105] CC1=C(c2ccc(C)cc2)S(=O)(=O)N(Cc2ccc(C(=O)NCc3ccccc3F)cc2)C1=O
    -18% | -7%
[106] Cn1c(N)c(C(=O)COC(=O)Cc2ccsc2)c(=O)n(C)c1=O
    -9% | 1%
